miR-21 FLuc: qHTS Assay for Modulators of miRNAs and/orActivators of miR-21 | 340,000 tested, under 10 active | HeLa miR-21 FLuc reporter, luciferase, 48 h | Potency, µM (titrated, usually from 38.3 µM), for the others: at the top dose reporter change, positive = more light | AID 2288, 2010; active = well fitted rising curve with a large enough effect; inconclusive = small, poorly fitted or top-dose-only effect; inactive = no such curve, though single readings can be large or run the other way;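 also: % of control where 0% means no effect; miR-21 action dims this reporter so a rising signal means less miR-21 action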
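Using DMEM plus 10% FBS, HeLa miR-21-FLuc cells are incubated with test compounds (final up to about 40uM) for 48 hours; firefly luciferase signal is then imaged following reagent-mediated lysis.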
Numbers without * were called inactive; ? = inconclusive. A portion of the library, so the mix of outcomes need not match the whole.

mol	miR-21 FLuc
Cc1ccccc1OCc1nc2c3cnn(-c4ccccc4Br)c3ncn2n1	-2.4%
COc1ccc(NC(=O)CN2C(=O)CCn3nc(-c4cccn4C)cc32)cc1	-1.8%
CC(C)CCNC(=O)c1ccc2nc(Cc3ccccc3)oc2c1	-12.8%
CCOc1ccccc1NS(=O)(=O)c1ccc2c(c1)CC(C)N2C(=O)C1CCC1 (centres undefined)	6.5%
Cc1ccc2nc3c(cc(C(=O)NCC4CCCO4)c(=N)n3C(C)C)c(=O)n2c1 (centres undefined)	4.8%
Cc1ccc(-c2nn3c(-c4ccc(C)cc4)nnc3c3ccccc23)cc1	-2.6%
CCc1ccc(S(=O)(=O)c2cn(C)c3cc(N4CCN(CC)CC4)c(F)cc3c2=O)cc1	0.0%
COc1ccc(-n2cc(-c3ccccc3)c3c(NC4CCCC4)ncnc32)cc1	0.1%
O=C1CSC2(C(=O)N(Cc3ccccc3F)c3ccccc32)N1c1cccc(C(F)(F)F)c1 (centres undefined)	27.9%
CCC(=O)N1CCc2cc(S(=O)(=O)NC(CC(C)C)C(=O)Nc3cccc(C)c3C)ccc21 (centres undefined)	-3.6%
O=C(COc1ccccc1)NCC(c1ccc(Cl)cc1)N1CCCCC1 (centres undefined)	9.6%
O=C(Cn1ncc2c3ccccc3n(Cc3ccccc3)c2c1=O)NC1CCCCCC1	-8.3%
CCc1cc2c(-c3ccccc3)cc(=O)oc2c2c1OCN(Cc1ccc(F)cc1)C2	-14.9%
Cc1ccc(Cl)cc1NC(=O)NC1COc2ccccc2C1 (centres undefined)	-0.7%
COc1ccc(Cl)cc1NC(=O)c1c(NCc2cccs2)sc2c1CCCC2	0.1%
CCN1CCN(c2ncc3c(n2)CCN(Cc2cc(Br)cs2)C3)CC1	7.6%
O=C(NCc1ccccc1)C1CCN(S(=O)(=O)c2ccc3[nH]c(=O)ccc3c2)CC1	-3.1%
CCN(C(=O)Cn1ncc2c(=O)oc3ccccc3c21)c1ccccc1F	0.8%
Cc1cc(C)cc(NC(=O)CN2C(=O)c3ccccc3Sc3ccc(C(=O)N4CCOCC4)cc32)c1	-1.9%
O=C(CSc1ncc(S(=O)(=O)c2ccc(Cl)cc2)c(=O)[nH]1)Nc1ccc2c(c1)OCCO2	2.1%
Cc1cc(C)cc(NC(=O)C2CCN(c3cc(C)nc4c(-c5ccc(Cl)cc5)c(C)nn34)CC2)c1	2.4%
CCc1ccc(CNCc2c(C(=O)O)n(Cc3ccc(F)cc3Cl)c3cc(OC)ccc23)cc1	0.0%
Cn1c(=O)cc(OCC(=O)NCc2ccc(F)cc2Cl)c2ccccc21	1.4%
O=C(C1COc2ccccc2O1)N(Cc1cccnc1)c1nc2ccc(Cl)cc2s1 (centres undefined)	-30.2%
Cc1ccc(CNC(=O)c2c[nH]c3ccc(S(=O)(=O)N4CCOCC4)cc3c2=O)cc1	-3.7%
O=c1c2sc3ccccc3c2n(Cc2ccc(F)cc2)c(=O)n1Cc1ccco1	3.8%
Cc1cc(N2CCN(c3cccc(C(F)(F)F)c3)CC2)n2nc(-c3ccccc3)nc2n1	1.7%
O=C(CSc1nccn1Cc1ccc(Cl)cc1)Nc1ccc2c(c1)OCO2	-1.3%
COc1ccc(Cl)cc1NC(=O)CSc1c2c(nc3ccccc13)CCC2	-7.6%
Cc1ccc(-c2noc(CSc3nnc(C)n3-c3ccc(C)c(C)c3)n2)cc1	5.7%
CCn1nc(C)c2c(-c3ccccc3)cc(=O)n(C(C)C(=O)Nc3cc(C)ccc3C)c21 (centres undefined)	3.0%
Cn1c(=O)c2c(-c3ccccc3)n(-c3cccc(C#N)c3)cc2n(C)c1=O	-0.6%

The final two compounds of the part above lead into the next:
mol	miR-21 FLuc
CCn1nc(C)c2c(-c3ccccc3)cc(=O)n(C(C)C(=O)Nc3cc(C)ccc3C)c21 (centres undefined)	3.0%
Cn1c(=O)c2c(-c3ccccc3)n(-c3cccc(C#N)c3)cc2n(C)c1=O	-0.6%
CCc1ccc(NC(=O)Cn2c(=O)n(Cc3ccc4c(c3)OCO4)c(=O)c3oc4ccccc4c32)cc1	0.9%
O=C(NCCSCc1cccc(Cl)c1)C1CCN(S(=O)(=O)Cc2ccccc2)CC1	-6.4%
Cc1cccc(C)c1NC(=O)Cn1cc(S(=O)(=O)Cc2ccc(F)cc2)c2ccccc21	-1.0%
COc1ccc(-c2noc(CN(C(=O)c3ccccc3Cl)C(C)C)n2)cc1	6.6%
CC(C)Oc1ccc(C(=O)N(Cc2ccc(N(C)C)cc2)Cc2ccco2)cc1	5.4%
COc1ccc(Cl)cc1NC(=O)CSc1nnc(C)n2c1cc1sccc12	0.5%
Cc1ccc(S(=O)(=O)NCCc2nnc3ccc(SCc4ccc(F)cc4)nn23)cc1	?
CCc1ccc(C(=O)c2cn(CC(=O)Nc3ccc(OC)cc3)c3cc4c(cc3c2=O)OCCO4)cc1	-1.0%
CCOc1ccc(N2CC(NC(=O)Cc3cccs3)CC2=O)cc1 (centres undefined)	0.2%
COc1ccc(-c2nc(SCC(=O)NC3CCCC3)c(-c3ccc(F)cc3)[nH]2)cc1	28.4%
COc1ccc(NC(=O)C2=C(C)Nc3nc(CCCO)nn3C2c2ccc(O)cc2)cc1 (centres undefined)	1.0%
CCC(C(=O)Nc1c(C)cc(C)cc1C)n1c(=O)c(-c2ccccc2NC(C)=O)nc2ccccc21 (centres undefined)	10.0%
CCCN(CCC)CC(O)Cn1cc(/C=C/C(=O)c2ccc(Br)cc2)c2ccccc21 (centres undefined)	-4.7%
Cc1ccc(NC(=O)c2cn3c4c(ccc(Cl)c4c2=O)OC(C)C3)c(C)c1 (centres undefined)	-2.8%
Cc1cccc(Nc2c3c(nc4nncn24)CCC3)c1	-22.7%
Cc1cc(C)cc(N(C)S(=O)(=O)c2nnc(NC(=O)COc3ccc(C)c(C)c3)s2)c1	12.2%

5 compounds picked at random from those above, as already listed:
mol	miR-21 FLuc
COc1ccc(-c2nc(SCC(=O)NC3CCCC3)c(-c3ccc(F)cc3)[nH]2)cc1	28.4%
Cc1cccc(Nc2c3c(nc4nncn24)CCC3)c1	-22.7%
COc1ccc(NC(=O)C2=C(C)Nc3nc(CCCO)nn3C2c2ccc(O)cc2)cc1 (centres undefined)	1.0%
CCOc1ccc(N2CC(NC(=O)Cc3cccs3)CC2=O)cc1 (centres undefined)	0.2%
CCCN(CCC)CC(O)Cn1cc(/C=C/C(=O)c2ccc(Br)cc2)c2ccccc21 (centres undefined)	-4.7%

The listing continues:
mol	miR-21 FLuc
CCC(=O)N1CCc2cc(Br)cc(S(=O)(=O)N3CCCC(C(=O)Nc4ccc(C(C)C)cc4)C3)c21 (centres undefined)	12.9%
Cc1cc(C)cc(NC(=O)N2CCN3CCCCC3C2)c1 (centres undefined)	-3.4%
CCOc1ccc(C2CC(=O)NC(NC(=O)c3ccc(C)cc3)=N2)cc1 (centres undefined)	-5.8%
COc1ccccc1OCCn1c(COc2cc(C)ccc2C)nc2ccccc21	-9.3%
Cc1ccc(NC(=O)c2cnn(-c3ccc(C)c(C)c3)c2C2CCN(C(=O)OC(C)(C)C)CC2)c(C)c1	-4.5%
CC(C)Sc1ncc(Cl)c(C(=O)Nc2ccc(S(=O)(=O)N(C)c3ccccc3)cc2)n1	15.8%
CCOc1ccc(CCNC(=O)c2[nH]c3cc(OC)ccc3c2Sc2ccccc2)cc1OCC	-1.0%
CCCC1=Nc2cc(C(=O)NCc3ccccc3)ccc2Sc2ccccc21	25.3%
CC(C)C(=O)OCc1cc(=O)n2nc(C3CCCCC3)sc2n1	-23.8%
Cc1ccc(C(=O)COC(=O)C(Cc2c[nH]c3ccccc23)NC(=O)c2ccc(Br)cc2)cc1 (centres undefined)	-3.7%
COc1ccc(C(=O)NCC(c2cccnc2)N2CCc3ccccc3C2)cc1OC (centres undefined)	-18.2%
O=C(COc1ccccc1)Nc1ccc2nc(SCC(=O)N3CCOCC3)sc2c1	25.3%
Cc1ccc(Cn2c(=O)n(Cc3ccccc3)c(=O)c3c(C)c(C)sc32)cc1	-2.4%
Cc1cc(S(=O)(=O)C(CNC(=O)c2ccc(OC(C)C)cc2)c2cccs2)ccc1F (centres undefined)	15.1%
Cc1cc(S(=O)(=O)NCCc2csc(-c3cccc(F)c3)n2)ccc1F	5.6%
O=C(CSc1nc(=O)[nH]c2c1CCCC2)Nc1ccc(Cl)c(Cl)c1	3.0%

Carrying on:
structure | miR-21 FLuc
CCOC(=O)C1CCN(c2nc3ccccc3nc2C(C#N)C(=O)NCCc2ccccc2)CC1 (centres undefined) | -33.0%
Cc1cc(C)cc(NC(=O)c2cc(S(=O)(=O)N3CCCCC3)c[nH]2)c1 | -0.4%
CCOc1cc(Br)c(C2C(C(=O)OC)=C(C)NC3=C2C(=O)c2ccccc23)cc1OCC (centres undefined) | 11.3%
CCCn1cnc2cc(NC(=O)c3cc(OC)c(OC)c(OC)c3)ccc21 | -6.8%
CCOC(=O)c1c(C)[nH]c(C)c1S(=O)(=O)N1CCC(C(=O)N2CCN(c3cc(C)ccc3C)CC2)CC1 | ?
Cc1nc(N2CCCC2)c2c(C(=O)Nc3cccc(Cl)c3C)c(C)oc2n1 | -9.4%
CCOc1ccc(N2CC(NC(=O)C(=O)c3c[nH]c4ccccc34)CC2=O)cc1 (centres undefined) | 5.3%
Nc1nnc(SCC(=O)Nc2cccc(F)c2)s1 | -5.2%
COCCNC(=O)c1c(NC(=O)c2cc(=O)c3cc(Cl)ccc3o2)sc2c1CCCC2 | 2.5%
Cc1ccc(NC(=O)N2CCN(c3nnc(C)c4c(C)n(-c5ccc(Cl)cc5)nc34)CC2)c(C)c1 | 2.3%
CCN1c2ccccc2-c2nc(SCC(=O)NCc3ccccc3)ncc2S1(=O)=O | 15.4%
CC(C)Oc1ccc(CNC(=O)c2cnc3sc(N4CCCC4)nn3c2=O)cc1 | 1.9%
CCOc1cccc2cc(-c3nc4sc(C(=O)Nc5ccc(C)cc5)c(C)c4c(=O)[nH]3)c(=O)oc12 | -7.5%
Cc1ccccc1NC(=O)CSc1c(C(C)C)cnc2c1c(=O)n(C)c(=O)n2C | -1.3%
COc1cccc(C2C(C(=O)Nc3ccccc3)=C(C)Nc3nnnn32)c1OC (centres undefined) | 11.0%
CCOC(=O)c1ccc(N2C(=O)c3n[nH]c(-c4ccco4)c3C2c2ccc(C)cc2)cc1 (centres undefined) | ?
COc1cc(O)ccc1-c1nc2ccc(Br)cn2c1Nc1ccccc1C | 28.4%
COc1ccc(CC(=O)NCCS(=O)(=O)N2CCN(c3ccccc3F)CC2)cc1OC | 0.4%
Cc1ccc(C2=CC(c3c(F)cccc3Cl)n3ncnc3N2)cc1C (centres undefined) | -7.8%
COc1ccc(C(=O)N=c2sc3cc(Cl)ccc3n2C)cc1 | -0.9%
COc1ccc(CCC(=O)NCCc2csc(-c3cccc(C)c3)n2)cc1 | -23.6%
COc1cc(-c2nnc(SCC(=O)Oc3ccccc3Cl)o2)cc(OC)c1OC | -0.2%
CCN(Cc1ccccc1)S(=O)(=O)c1ccc(F)c(C(=O)Nc2cc(C)ccc2OC)c1 | -1.3%
COc1ccc(-c2nc3scc(CCNS(=O)(=O)c4ccccc4F)n3n2)cc1 | -0.7%
COc1ccc(-c2nc3ccccc3n3c(-c4ccccc4)c4c(=O)n(C)c(=O)n(C)c4c23)cc1 | 0.1%
CC(C)(C)c1ccc(C(=O)NCC(c2ccco2)S(=O)(=O)c2ccc(F)cc2)cc1 (centres undefined) | ?
CC(C)c1ccc(S(=O)(=O)Nc2ccc3oc4c(c3c2)C(=O)CC(C)(C)C4)cc1 | -1.2%
COc1ccc(C2c3c(-c4c(C)cc(C)cc4O)n[nH]c3C(=O)N2Cc2ccco2)cc1 (centres undefined) | ?
COc1ccc(-c2cc(C(=O)NCc3ccc(C)cc3)c3cc(C(C)C)ccc3n2)cc1 | -1.9%
Cc1cccc(C)c1NC(=O)c1ccc2nc(CCc3ccccc3)oc2c1 | 19.1%
Cc1ccc(Nc2cc(C(=O)NC3CCCC3)c3ccccc3n2)c(C)c1 | 5.0%
CCCCOc1ccc(C2C(C(=O)c3ccc(C)o3)=C(O)C(=O)N2Cc2ccco2)cc1 (centres undefined) | -2.3%
CCOc1ccccc1Nc1nnc(-c2cc3cc(OC)ccc3oc2=O)s1 | -2.3%
COC(=O)c1sc2cccc(F)c2c1S(=O)(=O)N1CCN(c2ccc(F)cc2)CC1 | -2.9%
COc1cccc(N2CCN(C(=O)c3cc4cc5cc(C)ccc5nc4s3)CC2)c1 | 3.8%
O=C(NCCc1c[nH]c2ccccc12)Nc1ccccc1C(F)(F)F | 12.2%
COc1ccc(N2CCN(S(=O)(=O)CCNC(=O)Cc3ccc(Cl)cc3)CC2)cc1 | -1.3%
CCc1ccccc1N1CC(c2nc3ccccc3n2CC(C)C)CC1=O (centres undefined) | 17.8%
COc1cccc(CNC(=O)CSC2=Nc3ccccc3N=C(c3ccc(F)cc3)C2)c1 | -5.9%
CCCC(=O)Nc1nnc(SCc2cc(=O)c3ccc(C)cc3[nH]2)s1 | -2.1%
COc1ccc(-c2csc3nc(-c4ccc(F)cc4)oc(=O)c23)cc1 | -13.2%
CCc1ccc(C2CC(=O)c3c([nH]c(C(=O)OCCOc4ccccc4)c3C)C2)cc1 (centres undefined) | 18.5%
CCOC(=O)c1cc(-c2ccccc2)n(-c2cccc(C(=O)NC(C)(C)C)c2)c1C | 11.0%
CCc1ccc(CNC(=O)CN(c2ccc(C)cc2)S(=O)(=O)N(C)C)cc1 | 0.6%
Cc1csc2nc(COC(=O)c3ccc(NC(=O)C(C)C)cc3)cc(=O)n12 | 28.9%

Reformatted field by field: entries from further up.
> CCOC(=O)c1cc(-c2ccccc2)n(-c2cccc(C(=O)NC(C)(C)C)c2)c1C
  miR-21 FLuc: 11.0%

> CCc1ccc(CNC(=O)CN(c2ccc(C)cc2)S(=O)(=O)N(C)C)cc1
  miR-21 FLuc: 0.6%

> Cc1csc2nc(COC(=O)c3ccc(NC(=O)C(C)C)cc3)cc(=O)n12
  miR-21 FLuc: 28.9%

Bioassay records (PubChem)
